Mtb growth – Mycobacterium tuberculosis H37Rv growth inhibition, cell based, confirmatory dose response (AID 1949). M. tuberculosis H37Rv growth inhibition. most inactive calls were filed without a number and no value below 0 was filed. one-dose inhibition, % at 10 µg/mL; IC50 in µg/mL for titrated hits. actives 1.6% (n = 100,000);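 active = confirmed in a dose series; inconclusive = about 50% or more but not retested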;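 also: bacteria grown 7 days with compound before Alamar blue readout; 0% = untreated bacteria and 100% = reference antibiotic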
* hit, by the source's call; i = inactive; ? = inconclusive.

canonical_smiles,Mtb growth
COc1cc(NS(=O)(=O)c2ccc(NC(=O)C(c3ccccc3)c3ccccc3)cc2)ncn1,i
COc1cc(OC)c(C(=O)O/N=C(\N)c2ccc(C)cc2)cc1OC,?
COc1ccccc1Oc1ncnc2scc(-c3ccc(C)cc3)c12,i
CCN1CCN(c2nc3c(c(=O)n(C)c(=O)n3C)n2Cc2cccc3ccccc23)CC1,i
COCCSc1nnc(NC(=O)Cc2ccc(Br)cc2)s1,i
CCc1ccc(CN2CCCC(C(=O)N3CCCCCC3)C2)cc1 (centres undefined),i
CCOC(=O)c1ccc(NC(=S)Nc2ccc(C)cc2C)cc1,5%
O=[N+]([O-])c1ccc(N2CCNCC2)cc1NC1C2CC3CC(C2)CC1C3 (centres undefined),i
O=S(=O)(c1ccccc1)N1CCN(CC(O)COc2ccc3ccccc3c2)CC1 (centres undefined),13%
O=C(NCCCc1nc2ccccc2[nH]1)c1ccccc1,i
COc1cc(OC)c(NC(=O)c2ccc(C)cc2C)cc1Cl,34%
Cc1ccc(OCC(=O)Nc2cccc(Cl)c2)c(C)c1,40%
O=C(c1cc2ccccc2o1)c1ccc(Br)s1,1%
CCCN(CCC)c1nc(OCC)nc(OCC)n1,i
O=[N+]([O-])c1cccc(NC(=S)N2CCN(S(=O)(=O)c3ccc(Cl)cc3)CC2)c1,i
CC(=O)Nc1ccc(NC(=O)CN2CCCCC2)cc1,i
CS(=O)(=O)c1ccc2nc(NC(=O)CN3CCN(Cc4ccccc4)CC3)sc2c1,i
C=CCn1c(=S)[nH]c2sc3c(c2c1=O)CC(C(C)C)OC3 (centres undefined),i
O=C(Nc1cccc(C(F)(F)F)c1)N1CCN(c2cccc(C(F)(F)F)c2)CC1,5.1µg/mL*
C=CCn1c(N)cc(=O)nc1SC(C)C(=O)Nc1cccc(Cl)c1 (centres undefined),i

Remaining list, next part
canonical_smiles,Mtb growth
COc1ccc(OC)c(N(CC(=O)N2CCc3ccccc3C2)S(C)(=O)=O)c1,i
C=CCn1c(N)cc(=O)nc1SCC(=O)Nc1ccc2ccccc2c1,i
Cc1ccc(NC(=O)COc2ccc(Br)cc2C)cc1C,i
COc1cccc2cc(C(=O)Nc3cccc(-c4cn5cccc(C)c5n4)c3)c(=O)oc12,i
Cc1ccc(S(=O)(=O)N2CCN(C)CC2)c(C)c1C,i
O=C(NCCCc1ccccc1)c1ccccc1I,i
COc1ccccc1NC(=O)CN(c1cccc([N+](=O)[O-])c1)S(C)(=O)=O,i
Cn1c(O)c(N=NC(=O)COc2cccc(Br)c2)c2ccccc21,i
O=C(c1cccs1)N1CCC(Cc2ccccc2)CC1,i
Cc1ccc(S(=O)(=O)Nc2ccc(I)cc2)cc1C,9%
O=C(NC(=S)Nc1cccc(NC(=O)c2ccco2)c1)c1ccc(OCc2ccccc2)cc1,3%
COc1ccc(C(CCN(Cc2ccccc2)C(C)=O)Cc2ccccc2)cc1 (centres undefined),8%
O=C(NCc1ccc2c(c1)OCO2)C(=O)NC1CCCCC1,i
CCCCC(=O)Nc1ccc(NCc2ccccc2OC)cc1,3%
Cc1ccc(S(=O)(=O)Nn2cnnc2)cc1,i
COc1cccc(OCC(O)CNC(C)c2ccccc2)c1 (centres undefined),i
COc1cccc(-n2cnc3sc4c(c3c2=O)CCC4)c1,0%
COc1ccc(S(=O)(=O)N2Cc3ccccc3CC2C(=O)N2CCCCCC2)cc1OC (centres undefined),i
O=c1c2cc(-c3ccccc3)sc2ncn1Cc1ccccc1,i
COc1ccc(NC(=O)c2ccccc2NC(=O)c2ccc(Cl)cc2)cc1,i

Continuation.
canonical_smiles,Mtb growth
Cc1cccc(C(=O)NC(Oc2ccccc2[N+](=O)[O-])C(Cl)(Cl)Cl)c1 (centres undefined),0%
CCc1cccc(CC)c1NC(=O)CN1C(=O)C(=O)c2ccccc21,i
COc1ccc(OC)c(NC(=O)COc2c(C)cc(Br)cc2C)c1,1%
CCOC(=O)c1nc2nc(-c3cccs3)cc(C(F)(F)F)n2n1,3%
CCC(C)N1CCN(C(=O)c2cc(OC)c(OC)c(OC)c2)CC1 (centres undefined),i
O=C(CN(c1ccccc1F)S(=O)(=O)c1ccccc1)Nc1cccc(F)c1,i
COc1cccc(S(=O)(=O)NCc2ccc(C(=O)Nc3ccc(Br)cc3F)cc2)c1,2%
CCc1cc(C(=O)OC)c(NC(=S)NC(C)c2ccncc2)s1 (centres undefined),i
Cc1cccc(S(=O)(=O)NC(C(=O)O)C(C)C)c1 (centres undefined),i
COC(=O)c1ccc(NC(=O)CSc2nnc(-c3cccs3)n2-c2ccc(OC)cc2)cc1,i
C=CCSc1nnc(-c2ccncc2)n1-c1ccc(OCC)cc1,i
CCC(C)c1ccccc1NC(=S)NC(=O)c1ccccc1Br (centres undefined),6%
COc1ccc(NC(=S)NC(=O)c2cc3c(C)nn(-c4ccccc4)c3s2)cc1[N+](=O)[O-],i
CCc1cccc(OCCCNC(C)(C)C)c1,i
COC(=O)c1ccc(Cl)c(NS(=O)(=O)c2ccc(OC)c(I)c2)c1,i
Cc1ccc(C)c(S(=O)(=O)N(C)c2ccccc2)c1,1%
CSCCC1NC2(C(=O)N(C)c3ccccc32)C2C(=O)N(Cc3ccccc3)C(=O)C12 (centres undefined),i
Cc1ccccc1Cn1nc(C)c(NC(=O)c2cc3n(n2)C(C(F)F)CC(C(F)F)N3)c1C (centres undefined),i
COc1ccc(NC(=O)c2ccccc2NC(=O)CSc2ccccc2)cc1,i
S=c1[nH]nc(-c2ccccc2Cl)n1Cc1ccccc1,i

Retrieved by structure from above:
canonical_smiles,Mtb growth
O=C(NCc1ccc2c(c1)OCO2)C(=O)NC1CCCCC1,i
Cc1ccc(OCC(=O)Nc2cccc(Cl)c2)c(C)c1,40%

Single values from the list.
Under Mtb growth, Cc1ccc(C)c(S(=O)(=O)N(C)c2ccccc2)c1 reads 1%
Under Mtb growth, COc1ccc(OC)c(NC(=O)COc2c(C)cc(Br)cc2C)c1 reads 1%
Under Mtb growth, CCC(C)c1ccccc1NC(=S)NC(=O)c1ccccc1Br (centres undefined) reads 6%

Next section.
canonical_smiles,Mtb growth
COc1ccc(N(CC(=O)Nc2cccc(F)c2)S(=O)(=O)c2ccc(C)cc2)cc1Cl,i
Cc1cc(C)c(NC(=O)C(C)Sc2nnc(NC(=O)c3ccccc3Cl)s2)c(C)c1 (centres undefined),i
COc1ccc(OC)c(NC(=O)Cc2c(OC)ccc3cc(Br)ccc23)c1,i
CC(C)C(NC(=O)C12CC3(C)CC(C)(CC(C)(C3)C1)C2)C(=O)Nc1ccc(F)cc1F (centres undefined),2%
CS(=O)(=O)N(CC(=O)NCc1cccnc1)c1ccc(F)c(Cl)c1,i
CSc1ccccc1C(=O)Nc1ccccc1C(=O)N1CCCC1,i
CCOC(=O)N1CCN(C(=O)CN2C(=O)c3cc(Cl)c(Cl)cc3C2=O)CC1,i
CN(C)c1ccc(-n2cccc2C=O)cc1,i
CC(C)OCCCNC(=S)NNC(=O)c1ccccc1Br,i
CC(C)(C)NC(=O)C1CC1(c1ccc(Cl)cc1)c1ccc(Cl)cc1 (centres undefined),i
CCCN(CCC)C(=O)c1cc2cc([N+](=O)[O-])ccc2oc1=O,i
O=C(CCc1nc(-c2ccccc2F)no1)NCc1ccco1,i
COc1ccc(Cl)cc1NC(=O)CSc1nnc(-c2ccccc2)n1-c1ccc(C)cc1,0%
COCCNC(=O)COc1ccc(Cl)cc1C,i
CCOC(=O)c1c(NC(=O)c2cccc(Cl)c2)sc(C(=O)Nc2cccc(Cl)c2C)c1C,i
CC(C)(C)c1ccc(OC(=O)C(Cc2ccccc2)N2C(=O)C3C4CCC(C4)C3C2=O)cc1 (centres undefined),i
CC(C)(C)C(=O)Nc1ccc(Cl)cc1C(=O)c1ccccc1,7%
Cc1ccc(C)c(OS(=O)(=O)c2ccc(I)cc2)c1,i
COc1ccc(NC(=O)N2CCCc3cc(C)ccc32)c(OC)c1,?
C=CCc1c(C)[nH]c2ccc(OC)cc2c1=O,6%

(next part)
canonical_smiles,Mtb growth
C=CCOc1ccc(C2NC(=O)NC(C)=C2C(=O)OCc2ccccc2)cc1OC (centres undefined),i
CCCCn1cnc2sc(C)c(C)c2c1=O,3%
O=C(NCc1nnc(SCC(=O)N2CCN(c3ccccc3)CC2)n1-c1ccccc1)c1ccccc1F,i
CS(=O)(=O)N(CC(=O)Nc1ccccc1C(=O)N1CCOCC1)c1cc(C(F)(F)F)ccc1Cl,2%
O=C(CSc1nnc(-c2ccccc2)n1-c1ccccc1)Nc1ccc(Br)c(Cl)c1,i
O=C(Nc1ccc(S(=O)(=O)Nc2ccccn2)cc1)c1cccc([N+](=O)[O-])c1,i
COc1cc2c(cc1OC)C1=C(C#N)CC/C(=N\S(=O)(=O)c3cccc(Cl)c3)N1CC2,0%
COc1ccc(-c2cc(=O)oc3c(C)c(OCC(C)=O)ccc23)cc1,i
COc1ccc2ccccc2c1CNCc1ccccn1,?
CCCOc1cccc(C(=O)Nc2cccnc2)c1,i
O=C(O)c1cccc(NCc2ccc3c(c2)OCO3)c1,i
O=C1CCCc2oc3c(Br)cc(NS(=O)(=O)c4cccc5ccccc45)cc3c21,38%
CC(=O)Nc1cccc(NC(=O)CCCOc2ccc(Cl)cc2Cl)c1,i
CCOC(=O)CN1C(=O)C(O)(CC(=O)c2ccccc2OC)c2ccccc21 (centres undefined),i
Cc1ccc(-c2nc(S(=O)(=O)c3ccccc3)c(N3CCOCC3)o2)cc1,1%
CC(C)(C)C(=O)NC1(C(F)(F)F)NC(=O)N(c2ccc(F)c(Cl)c2)C1=O (centres undefined),i
CC(C)c1nnc(N2C(=O)c3oc4ccccc4c(=O)c3C2c2cccs2)s1 (centres undefined),i
Cc1ccc(S(=O)(=O)N(C)c2ccc(C(=O)N3CCC(C(N)=O)CC3)cc2)cc1,4%
Cc1ccccc1C(=O)N1CCN(c2ccc([N+](=O)[O-])c(N3CCCCC3)c2)CC1,i
CNCCOc1cc(C)cc(C(C)C)c1,i

Filtered by structure: those above with a furan ring, fused or not
canonical_smiles,Mtb growth
O=C(c1cc2ccccc2o1)c1ccc(Br)s1,1%
O=C(NC(=S)Nc1cccc(NC(=O)c2ccco2)c1)c1ccc(OCc2ccccc2)cc1,3%
O=C(CCc1nc(-c2ccccc2F)no1)NCc1ccco1,i
O=C1CCCc2oc3c(Br)cc(NS(=O)(=O)c4cccc5ccccc45)cc3c21,38%

(more compounds)
canonical_smiles,Mtb growth
Cc1ccc(C(=O)C(C)Oc2ccc(C)c(C)c2)cc1 (centres undefined),15%
O=C(COc1ccc2ccccc2c1)Nc1ccccc1NC(=O)COc1ccc2ccccc2c1,i
COc1ccc(N(CC(=O)Nc2ccccc2C(C)C)S(=O)(=O)c2ccc(C)cc2)c(OC)c1,3%
Cc1ccc(C(=O)O)cc1NC(=S)NC(=O)CC(C)C,i
CN(C(=O)Oc1ccc(Cl)c2cccnc12)c1ccccc1,i
Nc1ncnc(Nc2ccc(F)cc2)n1,i
CCOC(=O)c1c(Oc2ccc(NC(C)=O)cc2)nnc(-c2ccccc2)c1-c1ccccc1,0%
COC(=O)c1cc(NC(=O)CCC2CCCC2)cc(C(=O)OC)c1,i
Nc1nocc1-c1ccc(Br)cc1,5%
Cc1cccc(CN2CCN(C3CCCC3)CC2)c1,i
CC1=C(C(=O)OC(C)C)C(c2cccs2)n2ncnc2N1 (centres undefined),2%
COc1ccc(CC(=O)NC(=S)Nc2ccc(C)c(Cl)c2)cc1,22%
CCOC(=O)c1c(-c2ccc(OC)cc2)csc1NC(=O)CNCc1ccco1,43%
O=C(Nc1ccc2c(c1)nc1n2CCN(Cc2ccccc2)C1)c1ccco1,i
Cn1c(NCc2c[nH]c3ccccc23)nc2ccccc21,2%
CCOc1ccc(NC(=O)Cn2cc(C(=O)OC)c3ccccc32)cc1,i
CC(NC(=O)C1CCN(S(=O)(=O)c2cc(Cl)ccc2Cl)CC1)c1ccccc1 (centres undefined),i
O=C(Nc1ccc2c(c1)OCCO2)C1(c2ccccc2)CCOCC1,i
CC1CCCCN1CCNC(=O)c1ccc(Cn2c(=S)[nH]c3ccccc3c2=O)cc1 (centres undefined),i
CC(NC(=O)C1CC=CCC1C(=O)O)C1CC2CCC1C2 (centres undefined),i

(next part)
canonical_smiles,Mtb growth
COc1ccc(-c2c(C)nn(-c3c(Cl)cc(Cl)cc3Cl)c2N)cc1,i
O=C(CSc1nc(O)cc(=O)[nH]1)Nc1cc(Cl)cc(Cl)c1,i
CC(C)c1ccc(-c2nc(Nc3ccccc3F)sc2CC(=O)O)cc1,i
CCOC(=O)Cn1c(CCC(=O)O)ccc1-c1ccc(Cl)cc1,i
Cc1ccnc(NS(=O)(=O)c2ccc(NC(=O)CSc3nc4ccccc4o3)cc2)n1,i
COc1ccc(OC2C(=O)N(CCc3ccc(OC)c(OC)c3)C2c2cccc([N+](=O)[O-])c2)cc1 (centres undefined),i
Cc1ccsc1CN1CCC(C(=O)N(CCc2ccccc2)Cc2ccccc2)CC1,i
C=CCN1CC2(c3ccccc3)CN(CC=C)CC(c3ccccc3)(C1)C2=O,5%
Nn1c(SCC(=O)Nc2cc(C(F)(F)F)ccc2Cl)nnc1-c1cccnc1,1%
C=CCn1c(Cc2c[nH]c3ccccc23)nnc1SCC(=O)Nc1cccc([N+](=O)[O-])c1,i

High-throughput results from PubChem.

These rows are one share of the data. The share of hits here may be higher or lower than overall.
